# PrP UTR inh: inhibition of PrP 5' UTR reporter expression; AID 488862, 2010; inhibition, % (concentration not given with the values); 340,000 compounds, 0.35% hits; cell-based PrP 5' UTR mRNA reporter, plate reader;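 active = every replicate at 50% or more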;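 also: 0 = median of the neutral control wells; tested in H4 reporter cells; numbers are from one replicate; inactives centre near -14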
# Sa ugtP lethal: growth inhibition of ugtP-null S. aureus, primary screen, RN4220 ugtP deletion, OD600 | 16 h; some inactives read as strong as hits | growth inhibition, % (concentration not given with the values) | 330,000 compounds, 0.54% hits;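 active = z-score under -3 and OD600 up to 0.15 on both plates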;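 also: plate controls were untreated wells for no effect and antibiotic for full effect; wells of about 80 µL received 100 nL stock; the first replicate is given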
# RN4220 kill: growth inhibition of S. aureus RN4220, primary screen, OD600; inhibition, % (no concentration beside the values); 16 h; 330,000 compounds, 0.33% hits; AID 1259311, 2017;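 active = z-score of -3 or lower and OD600 up to 0.18 on both plates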;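 also: plate controls were untreated cells for no effect and reference antibiotic for full effect; stock transfer was 100 nL into about 80 µL; one replicate is shown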
# Autofluor counter: flagged as autofluorescent in microsphere protease counterscreen. AID 624483. fluorescence intensity (no concentration beside the values). compound autofluorescence counterscreen, microsphere flow cytometry; active compounds read high. 360,000 compounds, 3.1% hits;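 active = at least 3 SD above the mean of all compounds, about 16000 in these data; inconclusive = too few beads counted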;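 also: 100 nL of 1 mM stock went into each well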
# Mtb hypoxia rep: PubChem AID 1159583; M. tuberculosis hypoxia-regulated fluorescent reporter, fluorescence; fluorescence inhibition, % (concentration not given with the values); 300,000 compounds, 0.1% hits;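 active = 35 to 45% if threefold the growth effect, above 45% if 1.5-fold the growth effect; inactive = the rest, general growth blockers included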;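 also: wells of about 50 µL received 100 nL stock; 0% = vehicle wells and 100% = reference inhibitor wells; whole bacteria with a GFP reporter of the hypoxia response; strong numbers were not always called active; many hits fall short of the cut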
# BJeLR viability: MLPCN primary cell-based screen for lethality selective to Ras in HRASV12 cells; 300,000 compounds, 0.17% hits; inhibition, % (no concentration beside the values); BJeLR (HRASV12) viability, CellTiter-Glo ATP luminescence, 48 h; reference of the scale not given here;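 active = replicate mean above 50%; inconclusive = above 50% but judged a plate artefact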;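 also: 50 nL library stock added to about 25 µL; numbers are from one replicate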
# Mtb hypoxia rep growth: recorded beside Mtb hypoxia rep, whose call it bears; growth inhibition, %; measured here: M. tuberculosis growth (absorbance);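 0% = vehicle and 100% = reference antibiotic; read after six days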
# The depositor's hits bear a star; ? = inconclusive; . = not tested or not shown; & = joins results of further samples.
# Start of the listing, in advance:
SMILES,PrP UTR inh,Sa ugtP lethal,RN4220 kill,Autofluor counter,Mtb hypoxia rep,Mtb hypoxia rep growth,BJeLR viability
CCCS(=O)(=O)NCCc1cc2ccc(C)cc2[nH]c1=O,-18,4,1.8,10420,7,4,-4
Cc1ccc(C)c(-n2c(Cc3cc(=O)[nH]c(=O)[nH]3)nnc2SCC(=O)NCC2CCCO2)c1 (configuration not stated),-11,-1,1.1,10481,11,14,.
CC(C)(C)C(=O)NCCn1ccc2ccccc21,-9,11,2.7,4606,5,0,5
N=c1sccn1CC(=O)Nc1ccccc1Oc1ccccc1,0,0,0.7,2640,0,4,-2
O=C(O)CCC(=O)Nc1nnc(C(F)(F)F)s1,-28,-5,2.0,4398,.,.,.
COc1ccc(-c2ccc(C3C4C=CCC(C)C4C(=O)N3Cc3ccccc3)c(F)c2)cc1OC (configuration not stated),.,13,10,.,13,10,.
Cc1sc2ncnc(OCC(=O)NCc3cccs3)c2c1C,-16,-19,-10,2119,.,.,-9

# The listing (from the top)
SMILES,PrP UTR inh,Sa ugtP lethal,RN4220 kill,Autofluor counter,Mtb hypoxia rep,Mtb hypoxia rep growth,BJeLR viability
CCCS(=O)(=O)NCCc1cc2ccc(C)cc2[nH]c1=O,-18,4,1.8,10420,7,4,-4
Cc1ccc(C)c(-n2c(Cc3cc(=O)[nH]c(=O)[nH]3)nnc2SCC(=O)NCC2CCCO2)c1 (configuration not stated),-11,-1,1.1,10481,11,14,.
CC(C)(C)C(=O)NCCn1ccc2ccccc21,-9,11,2.7,4606,5,0,5
N=c1sccn1CC(=O)Nc1ccccc1Oc1ccccc1,0,0,0.7,2640,0,4,-2
O=C(O)CCC(=O)Nc1nnc(C(F)(F)F)s1,-28,-5,2.0,4398,.,.,.
COc1ccc(-c2ccc(C3C4C=CCC(C)C4C(=O)N3Cc3ccccc3)c(F)c2)cc1OC (configuration not stated),.,13,10,.,13,10,.
Cc1sc2ncnc(OCC(=O)NCc3cccs3)c2c1C,-16,-19,-10,2119,.,.,-9
C=CCn1c(SCC(=O)NC2(C#N)CCCCC2)nnc1-c1ccncc1,-3,6,1.5,?,-3,5,0
CN(C)CCC=C1c2ccccc2CCc2ccccc21,-15&-15,3,4.4,6034,3,3,.
O=C(OCc1cc(=O)n2ccsc2n1)c1ccccc1NCCO,-26,3,4.0,3916,-1,5,.
Cc1ccccc1NC(=O)CSc1[nH]c(=O)cc(C)c1C#N,-41,14,6.5,5731,3,1,12
COc1cc(-c2cn[nH]c2N)cc(OC)c1OC,-15,5,3.2,21444*,0,4,0
c1cc2c3c(cccc3c1)NC1(CCC3(CC1)Nc1cccc4cccc(c14)N3)N2,-7,.,.,3007,.,.,3
O=C1c2ccccc2C(=O)C12OC2c1cccc2ccccc12 (configuration not stated),-12,.,.,2550,.,.,-3
COc1ccc2ccccc2c1/C=N/NC(=O)c1nnn(-c2nonc2N)c1C(C)C,9,.,.,5679,.,.,0
Cc1nnc(SC(C)C(=O)Nc2ccc(S(=O)(=O)NC3CCCCC3)cc2)s1 (configuration not stated),-14,-2,3.0,8071,2,2,-6
O=C(CSCc1c[nH]c(=O)[nH]c1=O)OCC(=O)c1ccc(Br)cc1,-17,-1,10,3210,10,-3,-8
CCOC(=O)c1sc(NC(=O)CSc2nc3ccccc3s2)c(C(=O)OCC)c1C,.,5,5.9,.,1,0,-1
Cc1nc(-c2ccc(C(=O)N3CCOCC3)cc2)cs1,3,-1,2.5,5529,.,.,-5
COc1ccc(C(=O)Nc2nnc(C3=COCCO3)o2)cc1,3,-6,-0.1,5372,-9,2,-1
Cc1ccc(OC(C)C(=O)N2CC(=O)Nc3ccccc32)c(C)c1 (configuration not stated),-12,0,7.2,3469,-5,8,5
N#Cc1ccccc1OCC(=O)OCC(=O)N1CCN(C(=O)c2ccco2)CC1,-1,3,3.5,4180,10,5,-2
Fc1ccc2nc(-c3ccccc3)nc(SCc3nnc(-c4ccccc4)o3)c2c1,-10,-13,-1.4,4278,3,6,1
O=C1C=CC(=O)N1Nc1ccc(Br)cc1,-9,.,.,2426,.,.,5
CCOc1ccc(S(=O)(=O)NC(Cc2c[nH]c3ccccc23)C(=O)O)cc1 (configuration not stated),-44,4,2.4,4039,5,2,-3

# Continued:
SMILES,PrP UTR inh,Sa ugtP lethal,RN4220 kill,Autofluor counter,Mtb hypoxia rep,Mtb hypoxia rep growth,BJeLR viability
CCCCCCCC(=O)NN=Cc1ccc(Br)cc1,.,-16,-0.7,.,2,-3,.
CC(=O)N1[C@H](C)C=C[C@]1(Cc1ccccc1)C(=O)NCCN1CCOCC1,-18,.,.,4044,.,.,1
CCn1cc(C(=O)N2CCCc3ccccc32)c2cc(OC)c(OC)cc2c1=O,-6,-8,6.4,3175,7,4,-8
COc1cccc(N=Nc2c(=O)[nH]n3c(C)cc(C)nc23)c1,-14,-13,2.0,2360,2,-3,-3
Cc1ccc(C(C(=O)NC(C)(C)C)N(Cc2ccco2)C(=O)CCC(=O)Nc2ccccn2)cc1 (configuration not stated),-5,1,4.8,4304,6,1,2
CCCCC(=O)NC1(C(F)(F)F)C(=O)N(CC(C)C)C2=C1C(=O)CC(C)(C)C2 (configuration not stated),-8,1,-0.8,10985,2,6,12
CCOc1ccc(CCNC(=O)c2cc3sccc3n2CC)cc1OCC,-10,-5,8.7,3479,16,11,-11
Cc1nn(C)c(Oc2cccc(Cl)c2)c1C(=O)Nc1ccc(F)cc1F,-5,36,12,2427,5,7,-12
COc1cccc(CC(=O)NC2CCSc3ccccc32)c1 (configuration not stated),-2,-4,1.4,4287,18,3,5
C=CCn1c(=O)c(C(=O)Nc2ncccc2O)c(O)c2ccccc21,-12,.,.,4055,.,.,-8
CCOC(=O)c1ccc2nc(NC(=O)c3ccco3)sc2c1,-96,-8,-1.9,3165,14,14,11
Cc1onc(-c2ccccc2)c1CNC(=O)Nc1ccc(F)cc1F,-17,15,-2.6,4240,4,1,-8
O=C(NC12CC3CC(CC(C3)C1)C2)c1ccc(-c2ccccc2Cl)o1,-57,-27,0.8,2945,.,.,-3
COC(=O)C1=C(c2cc3ccccc3s2)C[C@@H]2CC[C@H]1N2C(=O)NCc1ccccc1,-12,.,.,3906,.,.,-15
CCC(C)C1COCCS(=O)(=O)N1Cc1ccc(Br)cc1 (configuration not stated),.,-5,9.8,.,4,2,.
O=c1[nH]c2ccccc2s1,-6,7,1.5,5043,.,.,4
CCOC(=O)c1nc(Nc2cccc(C)c2)c2ccccc2n1,-14,0,2.8,4303,4,1,2
CCOc1ccc(N/C(C)=C\C(=O)c2ccc3c(c2)OCCO3)cc1,-91,-1,5.3,4703,-4,-3,-6
CN1CCN(C(=O)CSc2nc(-c3ccco3)cc(C(F)(F)F)n2)CC1,-20,2,1.8,2214,11,-11,-9
COc1ccc(OCCCCn2c(CO)nc3ccccc32)cc1,-19,3,6.8,4129,5,4,-11
O=C1CSC(c2ccccc2Cl)N1 (configuration not stated),-17,4,5.3,4550,-3,5,4
COc1ccc(NC(=O)C(C)N2c3cccc4cccc(c34)S2(=O)=O)cc1 (configuration not stated),2,-8,1.4,22225*,0,-4,0
Cc1ccc2nc(SCC(=O)NC(=O)NCc3ccco3)[nH]c2c1,-23,3,-1.0,3217,.,.,7
O=C1CN(C(=O)COC(=O)CCc2ccccc2)c2ccccc2N1,-18,6,5.0,2814,11,6,.
COc1cc(NC(=O)c2ccc(COc3ccccc3Br)o2)cc(OC)c1OC,0,-6,1.3,5668,-2,7,-7

# New compounds follow
SMILES,PrP UTR inh,Sa ugtP lethal,RN4220 kill,Autofluor counter,Mtb hypoxia rep,Mtb hypoxia rep growth,BJeLR viability
O=C(Nc1c(-c2ccccc2)nc2ccccn12)c1ccccc1F,0,17,4.4,3517,18,6,-4
O=C(Nc1ccccn1)c1ccc(S(=O)(=O)N2CCCCC2)cc1,-52,3,2.8,5945,4,10,-1
COc1ccc(OC)c(/C=C2\SC(N3CCCCC3)=NC2=O)c1,-12,18,2.2,3839,0,2,-13
COC(=O)c1cc(Br)c(=O)n(CCN2CCOCC2)c1,-18,-4,4.0,3325,1,1,-2
Cc1ccc(NC(=O)c2oc3ccccc3c2C)nc1,-53,1,4.8,6125,10,-5,10
COc1ccnc(-n2cccc2C#N)c1C#N,-12,3,0.8,3254,3,6,-1
COCc1ccc(-c2c(-c3cc(OC)cc(OC)c3)oc(=O)c3cc(OC)c(OC)cc23)cc1,-26,0,18,4308,-8,4,.
O=C(CCS(=O)(=O)c1ccc(Br)s1)NCc1ccc2c(c1)OCO2,-26,5,-0.2,22950*,11,4,0
Cc1cc(C)n(C(=O)CCN2C(=O)c3ccccc3C2=O)n1,-5,-2,1.5,9976,2,2,7
C=C1CC[C@@H]2[C@](C)(CO)[C@H](O)CC[C@@]2(C)[C@@H]1/C=C/C1=CCOC1=O,-18,2,2.7,4025,6,2,6
COc1cc(/C=N/OCC(=O)NC23CC4CC(CC(C4)C2)C3)ccc1OCc1ccccc1,-60,.,.,1888,.,.,-9
CC(Sc1nnc(CN2CCCC2)n1Cc1ccccc1)C(=O)Nc1ccc(F)c(F)c1F (configuration not stated),3,6,3.8,5985,-8,-10,.
O=C(N/C(=C/c1cccs1)C(=O)N1CCOCC1)c1cccs1,-64,0,0.1,2492,15,8,0
O=C(c1cc(COc2ccc(F)cc2Cl)on1)N1CC2C[C@@H]3CC1C[C@H](C2)C3,-85,7,3.3,5540,6,2,7
CC1=CC(C)(C)N(C(=O)C(C)N2C(=O)c3ccccc3C2=O)c2ccc(C)cc21 (configuration not stated),-4,-12,3.4,3208,5,1,-8
CCn1c(SCC(=O)Nc2ccc(F)cc2F)nc2c(c1=O)SCC2,-9,3,3.7,5875,4,2,-10
Cc1ccc(C)c(S(=O)(=O)N=Nc2c(O)[nH]c3ccccc23)c1,-10,2,2.3,4313,1,8,-3
COc1ccc(N2CCN(C(=O)Cc3coc4cc(C)ccc34)CC2)cc1,2,1,2.3,3962,7,9,6
CSc1nc2[nH]c(=O)n(O)c(=O)c2n1Cc1ccccc1,-10,25,3.9,4332,12,6,.
COCCn1c(SCC(=O)c2ccccc2)nc2c(c1=O)SCC2,-19,4,8.2,4378,-11,-2,-1
O=C(N/N=C/c1ccc([N+](=O)[O-])s1)c1ccccc1Br,-38,.,.,10024,.,.,-3
Cc1ccccc1N(CC(=O)N/N=C/c1cc(C)n(-c2ccccc2C)c1C)S(C)(=O)=O,-1,.,.,2466,.,.,5
CCCN1CCc2c(sc(NC(=O)c3ccc(S(=O)(=O)N4CCN(C(=O)OCC)CC4)cc3)c2C(N)=O)C1,-12,2,3.8,6970,-6,6,3
COc1ccc(/C=C/C(=O)OCC(=O)Nc2ccc(N3CCOCC3)cc2)cc1OC,-15,5,1.6,5451,12,1,1
CC1CCCC(C)N1C(=O)CSc1nnc(-c2cccs2)o1 (configuration not stated),-65,-1,3.3,12792,-10,-1,0

# (list continues)
SMILES,PrP UTR inh,Sa ugtP lethal,RN4220 kill,Autofluor counter,Mtb hypoxia rep,Mtb hypoxia rep growth,BJeLR viability
ON=CCCn1c(=S)sc2ccccc21,.,-1,3.9,.,5,5,.
CSc1ccccc1OCc1cc(C(=O)NCCc2ccco2)no1,-9,5,3.4,5356,7,9,-13
COc1ccc(NC(=O)N(C)CC2Oc3c(NS(=O)(=O)c4ccc(F)cc4)cccc3C(=O)N(C(C)CO)CC2C)cc1 (configuration not stated),.,3,3.5,.,16,13,.
O=C(Cc1cccc(NC(=O)C2CCCN(C(=O)C3CCCCC3)C2)c1)Nc1cccc(C(=O)N2CCOCC2)c1 (configuration not stated),-3,0,3.4,3696,-4,6,.
CS(=O)(=O)N1CCN(c2ccc(NC(=S)NC(=O)c3ccccc3[N+](=O)[O-])cc2)CC1,-24,5,-0.4,4315,4,-3,12
O=C(/C=C/c1ccco1)NCCCN1CCOCC1,-29,8,1.1,4400,4,12,-4
Cc1ccc(C)c(N2CCN(CCCc3ccccc3)CC2)c1,-5,5,0.1,3577,-9,-6,-2
Cc1ccc(S(=O)(=O)N2CC3(C)CN(S(=O)(=O)c4ccc(C)cc4)CC(C)(C2)C3O)cc1 (configuration not stated),-15,-17,6.0,9708,-1,5,-9
C[C@]12CCC3c4ccc(O)cc4CCC3C1CCC2OC(=O)CCC1CCCC1 (some centres not stated),.,82,1.2,.,12,3,.
CCC(=O)N/N=C(\C)CC(=O)Nc1ccc2ccccc2c1,0,.,.,6585,.,.,-1
O=[N+]([O-])c1ccc2c(c1Nc1ccccc1)=NC1(CCCCC1)N=2,-11,-2,7.1,3250,14,6,-9
O=C(COc1ccc(F)cc1Cl)Nc1ccccc1C(=O)N1CCCCC1,-18,1,3.0,4118,4,0,-1

# Screens deposited in PubChem BioAssay by several laboratories.
